Compound activity: PubChem, Center for Chemical Genomics, University of Michigan
HIV TAR-Tat: HIV-1 TAR-Tat binding disruption. HIV-1 TAR RNA, Tat peptide displacement FRET; hits give high values. z-score (concentration not given with the values). hit rate 0.6% among 100,000;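 further: score is relative to mean and SD of negative controls; some compounds called inactive have numbers as strong as hits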
CDC25B-CDK2 inh: human CDC25B-CDK2/CyclinA binding inhibition; P30305+P24941; HTRF CDC25B-CDK2/CyclinA binding, anti-His/anti-Flag; hits give high values; z-score (test concentration not listed); hit rate 0.72% among 94,000; AID 1259370;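 further: score is relative to mean and SD of negative controls; strong numbers were not always called active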
* = called active by the depositor; / = no result given.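 How the source made its calls: active means z-score from 3 up in half or more of its runs; inactive means the rest.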

SMILES | CDC25B-CDK2 inh | HIV TAR-Tat
Cn1c(=O)n(C)c2cc(C(=O)Cc3ccccc3)ccc21 | 0.57 | 0.4
Cn1cnc2cc(Nc3nnc(-c4ccccc4)c4ccccc34)ccc21 | -2.9 | /
CCCN(c1ccccc1CC)S(=O)(=O)c1cc(Br)cnc1N | -1.14 | 0.08
Cc1cc(=O)oc2c1c(-c1ccccc1)nn2-c1ccccc1 | -0.85 | -0.29
Cn1c(=O)[nH]c(=O)c2c1nc(N1CCNCC1)n2Cc1ccccc1Cl | 2.14 | 1.43
CCCCN(C)S(=O)(=O)c1ccc(-c2ccc(=O)[nH]n2)s1 | / | -0.87
CCN1CCN(CCNC(=O)CCC(=O)N2CC3CCCN3c3ccccc32)CC1 (stereo not drawn) | / | -1.71
O=C(CC1CCCC1)Nc1c(C(=O)N2CCN(c3ccccc3F)CC2)oc2ccccc12 | -0.72 | 2.48
CCOC(=O)c1c(NC(=O)c2cc3ccccc3c(=O)o2)sc2c1CCC(C)C2 (stereo not drawn) | -2.11 | 0.66
COc1ccc(C(=O)N/N=C(/C(=O)O)c2ccccc2)cc1 | -1.27 | /
CCC1CCCCN1CCCNC(=O)Cn1c2ccccc2c2nc(=O)cc(C)n21 (stereo not drawn) | -1.86 | -0.36
CCOCCCNC(=O)C(CC)n1nc(C)c2sc3ccccc3c2c1=O (stereo not drawn) | -0.57 | 2.67
COCSc1ccc(C(=O)OCC(=O)c2ccc(Br)cc2)cc1 | -0.54 | 1.49
Cc1nn(CC(=O)NC(C)(C)C)c(C)c1S(=O)(=O)N1CCCC(C(=O)NC2CCCC2)C1 (stereo not drawn) | / | 1.26
Cc1n[nH]c(C)c1CC(=O)NCCC1=CCCCC1 | / | 0.61
CCCCC(=O)N1c2ccccc2NC2=C(C(=O)CCC2)C1c1ccco1 (stereo not drawn) | -1.19 | -1.67
Cn1c2c(c(=O)n(C)c1=O)C(c1ccc(OCc3ccccc3)cc1)C1=C(N2)c2ccccc2C1=O (stereo not drawn) | -4.11 | -10.1
O=C(Nc1nnc(SCc2nc3ccccc3[nH]c2=O)s1)c1ccccc1Br | / | -4.38
CN(C)S(=O)(=O)c1cc(C(=O)O)c(N2CCOCC2)cc1Cl | -1.35 | 0.49
CCOc1ccc2nc(NC(=O)CCN3C(=S)NC(C)(C)CC3C)sc2c1 (stereo not drawn) | -0.53 | /

The results go on.
SMILES | CDC25B-CDK2 inh | HIV TAR-Tat
O=C(c1cnc2sccn2c1=O)N(Cc1ccccc1)c1ccccn1 | / | 1.88
CCOC(=O)c1cc(S(=O)(=O)Nc2ccc(Br)cc2)cn1C | / | 1.99
O=C(Cn1c(=O)oc2ccccc21)NC1CCCc2ccccc21 (stereo not drawn) | / | -0.13
COCc1c(Br)c(C)nc2sc3c(=O)n(-c4ccc(OC)cc4)nnc3c12 | -1.69 | -0.49
O=C(CCC(=O)N1CCSc2ccccc21)NC1CCCC1 | / | 2.06
CC(CC(=O)NC(C)(C)C)S(=O)(=O)c1ccc2c(c1)NC(=O)CO2 (stereo not drawn) | / | 2.42
CCOC(=O)c1c[nH]c2c(C)cc(C)cc2c1=O | -0.26 | 0.35
CC1=C(c2ccc(C(C)C)cc2)S(=O)(=O)N(CC(=O)NC2CCCCC2)C1=O | / | 0.95
CCN1CCCC1CNc1ncnc2onc(C)c12 (stereo not drawn) | / | 0.13
Oc1ccc(NC(c2ccc(F)cc2)c2nnc(-c3ccccc3)o2)cc1 (stereo not drawn) | / | 0.46
Cc1c(C(N)=O)nnn1-c1ccc(F)cc1 | -0.51 | 1.66
CC(C)n1c(CN2CCN(C(=O)c3ccco3)CC2)nc2c1c(=O)n(C)c(=O)n2C | 1.15 | -0.64
Clc1cccc(-n2ncc3c(N4CCN(c5ccccc5)CC4)ncnc32)c1 | / | 1.26
O=C(Cn1nc2c3sccc3ncn2c1=O)Nc1ccc2c(c1)OCO2 | / | 0.6
CCc1nc(-c2ccc(-c3ccccc3)nc2OC)no1 | 0.54 | 0.71
O=C(CSCc1nc2cccnc2n1C1CCCCC1)N1CCN(c2ccccn2)CC1 | / | 0.34
CCN(CC)C(=O)Cn1cc(C(=O)c2cccs2)c2ccccc21 | -0.07 | 3.71
CC(C)C1C(=O)Nc2ccc(S(=O)(=O)NCCc3ccccc3)cc21 (stereo not drawn) | / | 0.98
COc1cccc(C2C(C#N)=C(N)OC3=C2C(=O)CC(c2ccccc2)C3)c1 (stereo not drawn) | 0.14 | /
O=C(C1CCCN(S(=O)(=O)c2cnc[nH]2)C1)N1CCn2c1nc1ccccc12 (stereo not drawn) | 0.28 | /

2 of the compounds above, with two lines to a compound.
The line under a structure holds: CDC25B-CDK2 inh | HIV TAR-Tat
O=C(CSCc1nc2cccnc2n1C1CCCCC1)N1CCN(c2ccccn2)CC1
  / | 0.34
CCN(CC)C(=O)Cn1cc(C(=O)c2cccs2)c2ccccc21
  -0.07 | 3.71

The results go on.
SMILES | CDC25B-CDK2 inh | HIV TAR-Tat
Cc1ccc(N2OC3C(=O)NC(=O)C3C2c2ccc(Cl)cc2)cc1 (stereo not drawn) | -0.93 | 1.96
Cc1ccc2nc3c(cc2c1)c(=O)oc1ccccc13 | 0.73 | /
CCOC(=O)C1(c2csc(N)n2)COC(=O)C1 (stereo not drawn) | -1.26 | 1.17
COC(=O)Nc1ccc(S(=O)(=O)N2CCCc3ccccc32)cc1 | 1.25 | -2.05
COc1ccc2oc(=O)c(C(=O)C[n+]3cccc(C)c3)cc2c1 | 0 | /
Cn1c(=O)c(=O)n(C)c2cc(S(=O)(=O)Nc3ccc(F)c(Cl)c3)ccc21 | -0.69 | 3.51
O=C(CSc1nnc(-c2ccncc2)o1)Nc1ccc2c(c1)OCO2 | -1.45 | 2.85
Cc1cc(C(=O)N2CCCC2c2cc(C)on2)no1 (stereo not drawn) | / | 2.24
O=C(COCc1cc(-c2cccs2)on1)NC1CC1 | / | 1.1
Cc1cc(C)c(NC(=O)CSc2ccc(-c3sc(C)nc3C)nn2)c(C)c1 | / | 0.65
O=c1c(N2CCc3ccccc3C2)csc2ccccc12 | / | 0.9
CCCN1C(=O)C2(/C(=C(/O)c3ccc(Cl)cc3)C(=O)C(=O)N2CCCOC)c2ccccc21 (stereo not drawn) | 3.33 | 0.72
O=C(Oc1ccccc1)Oc1ccc2oc(=O)sc2c1 | -1.09 | /
Cc1cc(S(=O)(=O)N2CC=C(c3c(C)n(C)c4ccccc34)CC2)ccc1F | -2.1 | 2.39
Cc1ccc(-n2c(=O)n(C)c3c(C(=O)N(C)C)nc(-c4ccccc4)nc32)cc1C | -1.09 | 1.84
CC1CCCCC1N1CN=C(Nc2nc3ccccc3s2)NC1 (stereo not drawn) | -1.06 | -0.71
CCC(=O)N1c2ccc(S(=O)(=O)CCC(=O)NC3CCCCC3)cc2CC1C (stereo not drawn) | -1.87 | /
Cc1ccc(-c2c(N3CCCCC3C)c(=O)c2=O)cc1C (stereo not drawn) | / | 1.45
O=c1c(NC2CCCCC2)c(NC2CCCCC2)c1=O | -0.83 | /
CCCc1nc2nc(C)cc(N3CCN(c4cc(C)ccc4C)CC3)n2n1 | -0.34 | 0.37

Going on with the list:
SMILES | CDC25B-CDK2 inh | HIV TAR-Tat
CCn1c(N)c(C(=O)NCCCOC)sc1=S | -1.2 | /
CCOC(=O)N1CCC(Nc2c(N3CCN(c4cc(C)ccc4C)CC3)c(=O)c2=O)CC1 | -1.28 | 0.78
COc1cc(-c2coc3cc(O[C@@H]4O[C@H](CO)[C@@H](O)[C@H](O)[C@H]4O)c(OC)c(O)c3c2=O)cc(O)c1OC | / | 1.72
O=c1[nH]c(SCc2ccccc2)nnc1-c1ccccc1 | -1.04 | -0.2
O=C1c2ccccc2C(=O)C1(Nc1cccc(F)c1)c1ccccc1 | -1.69 | 2.63
O=C(NCCN1CCOCC1)c1cc(C2CC2)on1 | 0.33 | 0.48
CCOc1cccc2c1Oc1nc(-c3ccc(C(C)C)cc3)[nH]c(=O)c1C2 | -1.84 | 2.18
O=C1CCSc2ccc(S(=O)(=O)NCCN3CCN(c4ccccc4)CC3)cc2N1 | / | 0.72
O=S(=O)(c1cccc2c(I)cccc12)N1CCCNCC1 | 1.35 | /
Cc1cccc2c1Oc1nc(-c3ccc(O)cc3)[nH]c(=O)c1C2 | -0.44 | -2.91
NC(c1ccccc1)c1c(O)ccc2ccccc12 (stereo not drawn) | -0.97 | /
CN(C)CCN1C(=O)c2ccc(-c3ccco3)n2CC1(C)C(=O)NC1CCCCC1 (stereo not drawn) | / | 0.03
[O-][n+]1c2c(nn1-c1ccccc1Cl)-c1nonc1CC2 | -0.3 | /
CCCNC(=O)c1cccn1-c1nnc(N2CCCCC2)s1 | / | 1.58
Cc1c(C)n(-c2ccccc2Cl)c2ncn3nc(-c4ccco4)nc3c12 | -1.2 | 2.05
O=C(c1ccco1)N1N=C(c2ccc(Br)cc2)CC1(O)C(F)(F)F (stereo not drawn) | -4.2 | /
CCN1CCN(c2cc(C)nc3nc(-c4ccc(Cl)cc4)nn23)CC1 | -2.05 | 1.05
O=C(c1cnn(-c2ccc(F)cc2)c1-n1cccc1)N1CCC(N2CCCCC2)CC1 | / | 1.1
COc1ccc(OCC(O)CNC(=O)c2nccnc2C(=O)O)cc1 (stereo not drawn) | -0.65 | /
Cc1ccc(S(=O)(=O)c2nnn3c2nc(NCCC(C)C)c2sccc23)cc1 | / | 0.79

Complete entries, looked up by structure. Values in the order: CDC25B-CDK2 inh	HIV TAR-Tat
`Cc1c(C)n(-c2ccccc2Cl)c2ncn3nc(-c4ccco4)nc3c12` in the list: -1.2	2.05
`Cc1cccc2c1Oc1nc(-c3ccc(O)cc3)[nH]c(=O)c1C2` in the list: -0.44	-2.91
`CCOC(=O)N1CCC(Nc2c(N3CCN(c4cc(C)ccc4C)CC3)c(=O)c2=O)CC1` in the list: -1.28	0.78
`O=S(=O)(c1cccc2c(I)cccc12)N1CCCNCC1` in the list: 1.35	/
`CN(C)CCN1C(=O)c2ccc(-c3ccco3)n2CC1(C)C(=O)NC1CCCCC1` (stereo not drawn) in the list: /	0.03

Continued:
SMILES | CDC25B-CDK2 inh | HIV TAR-Tat
O=C(NCc1ccc2c(c1)OCO2)C(=O)NCC(c1cccs1)S(=O)(=O)c1cccs1 (stereo not drawn) | / | 0.9
Nc1cccc(S(=O)(=O)c2cccc(N)c2)c1 | -1.01 | 1.22
O=C(O)c1ccccc1Nc1c2ccccc2nc2ccccc12 | -0.13 | /
O=C(NCc1ccc2c(c1)OCO2)c1ccc2c(-c3ccccc3)onc2c1 | / | -2.88
Cc1cc(NS(=O)(=O)c2ccc(Nc3nc(-c4cccs4)cs3)cc2)no1 | 0.27 | 0.75
Cn1c(=O)c2c(N)c([N+](=O)[O-])c(=O)n(C)c2n(C)c1=O | 0.54 | /
CC(Oc1cc2oc(=O)c3c(c2cc1Cl)CCC3)C(=O)O (stereo not drawn) | -0.73 | /
CCN(CC)CCn1c(=O)n(C)c(=O)c2[nH]cnc21 | 0.71 | 0.79
O=C(CN1C(=O)c2ccccc2S1(=O)=O)N1CCCC1 | -0.32 | 1.83
COc1ccc(-n2c(SCc3nc(-c4ccccc4OC)no3)nnc2-c2ccncc2)cc1 | -2.08 | -1.82
CC1=C(C(=O)N2CCN(C3CCCCC3)CC2)C2(CCCCC2)OC1=O | -2.51 | -0.14
Cc1ccc(C2c3c(-c4c(C)cc(C)cc4O)n[nH]c3C(=O)N2Cc2ccco2)cc1 (stereo not drawn) | 1.21 | -0.03
Cc1nc(-n2cccc2)sc1C(=O)N1CCN(c2ccccn2)CC1 | / | 2.96
O=C(/C=C/c1ccc(Cl)cc1Cl)NCc1ccncc1 | -1.41 | /
Cc1c(C(=O)N2CCOCC2)sc2ncn(CC(=O)N3CCC(C)CC3)c(=O)c12 | -1.03 | /
COc1cc(Br)cc2c1Oc1nc(-c3ccccc3)[nH]c(=O)c1C2 | -1.87 | 1.36
O=c1cc(O)c2c(=O)n(-c3ccccc3)c(-c3ccccc3)cc2o1 | -2.02 | /
Cc1ccc(Cc2c(O)nc3n(c2=O)CCCS3)cc1 | 0.34 | -0.05
COc1ccc(-n2ncc3c2ncn2nc(COc4cc(C(C)C)ccc4C)nc32)cc1 | 0.36 | 1.21
CC1(C)C2CCC(C2)C1CC1OCC(CN2CCCCC2)O1 (stereo not drawn) | -2.87 | /

Following part.
SMILES | CDC25B-CDK2 inh | HIV TAR-Tat
O=C(C1CCN(c2ccc(-c3cccs3)nn2)CC1)N1CCN(c2ccc(F)cc2)CC1 | / | -0.21
COc1ccc(S(=O)(=O)NCCc2nnc3ccc(SCc4ccc(Cl)cc4)nn23)cc1 | / | 2.2
CS(=O)(=O)Nc1ccc(C2=NN(C(=O)CCCC(=O)O)C(c3ccc(F)cc3)C2)cc1 (stereo not drawn) | -1.45 | 1.36
C[C@@H](c1ncncc1F)[C@](O)(Cn1cncn1)c1ccc(F)cc1F | -1.31 | 0.54
C=CCOc1ccc(C2Nc3ccccc3S(=O)(=O)N2Cc2ccccc2)cc1OC (stereo not drawn) | 0.53 | /
COc1ccc(-c2csc(-c3c(N)c(C(=O)c4ccccc4)n4ccccc34)n2)cc1OC | 0.53 | 0.58
CC1(C)Cc2nc3oc4c(=O)n(CC(=O)Nc5ccccc5)cnc4c3cc2CO1 | / | -0.2
CCC(CC)C(=O)Nc1nnc(S(=O)(=O)N2CCCC2)s1 | -0.61 | 0.19
CC1=NC(c2ccccc2)(c2ccccc2)c2ccccc2N1 | -0.05 | /
O=C(Nc1ccccc1)C1COc2ccccc2C1 (stereo not drawn) | -0.43 | -1.24

This is a random part of the collection; any-hit rate near 0.97%.
